High-throughput results as filed in PubChem.
VDR inh: blocks the human vitamin D receptor; 400,000 compounds, 0.93% hits; VDR-SRC2-3 peptide fluorescence polarization, 2 h; Potency, µM, for inactives: max response, negative = inhibition, most hits filed as inhibitors; P11473; active = well fitted inhibition curve with a large enough effect; inconclusive = small, poorly fitted or top-dose-only effect, or another doubt; inactive = no such curve, though single readings can be large or run the other way; also: series mostly up to about 120 µM
Target sequence (P11473 whole entry, looked up): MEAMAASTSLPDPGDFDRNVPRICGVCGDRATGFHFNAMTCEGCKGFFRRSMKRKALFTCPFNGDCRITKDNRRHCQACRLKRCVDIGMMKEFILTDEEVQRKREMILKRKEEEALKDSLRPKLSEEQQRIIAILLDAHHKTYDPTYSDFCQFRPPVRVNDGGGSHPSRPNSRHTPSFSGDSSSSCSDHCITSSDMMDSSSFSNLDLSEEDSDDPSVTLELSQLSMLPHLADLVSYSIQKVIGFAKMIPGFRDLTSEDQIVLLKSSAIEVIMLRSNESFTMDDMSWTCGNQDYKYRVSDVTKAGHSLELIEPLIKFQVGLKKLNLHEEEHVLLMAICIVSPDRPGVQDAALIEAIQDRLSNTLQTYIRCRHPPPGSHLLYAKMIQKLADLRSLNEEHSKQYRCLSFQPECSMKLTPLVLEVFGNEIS
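Fluorescence polarization assay measuring small-molecule disruption of VDR binding to the coregulator peptide SRC2-3. Compounds were pin-transferred (23 nl) into the reagent mix and incubated 2 h at room temperature before reading.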
Numbers without * were called inactive; u = inconclusive; & = joins results of further samples; [ ] = remark or other dose. % is scaled to controls: 0 for no effect and ±100 for the full control effect; potency is read from the fitted curve at half-maximal effect. The list is partial; the hit share may differ from the screen's.

VDR inh,SMILES
-20%,O=C(N/N=C/c1cc2c(cc1Br)OCO2)C1COc2ccccc2O1 (stereo unspecified)
20%,O=C(CN1CCN(Cc2cccc(F)c2)CC1)Nc1ccccc1F
-19%,Cc1ccccc1-n1c(O)cc(=O)[nH]c1=S
2%,CCOC(=O)c1ccc(NC(=O)CCCc2nc(-c3ccccc3Cl)no2)cc1
27%,Cc1nc2ccccc2c(C)c1CC(=O)OC(C)C(=O)NC1(C#N)CCCCC1 (stereo unspecified)
0%,CC(C)NC(=O)C1CCN(c2nc3ccccc3nc2C(F)(F)F)CC1
17%,COc1ccc(C)cc1NC(=O)c1ccc(NS(=O)(=O)c2cccs2)cc1
5%,O=C(CCn1c(=O)sc2ccccc21)NC1=NCCS1
-17%,NC(=O)c1cc([N+](=O)[O-])ccc1NCc1ccc(N)cc1
11%,Cc1ccc(N2CC(C(=O)NC3CCC(C)CC3)CC2=O)cc1 (stereo unspecified)
-4%,O=C(CSC(=S)N1CCOCC1)Nc1nc(-c2ccccc2)c(-c2ccccc2)o1
1%,O=S(=O)(NCc1cccnc1)c1ccc(Cl)c(Cl)c1
-14%,CCOC(=O)C1=C(COc2ccccc2)NC(=O)NC1c1ccc2ccccc2c1 (stereo unspecified)
0%,CC(C)COC(=O)N1CC(O)CC1C(=O)O (stereo unspecified)
-14%,CO[C@@H]1[C@@H](OC(N)=O)[C@@H](O)[C@H](Oc2ccc3c(O)c(NC(=O)c4ccc(O)c(CC=C(C)C)c4)c(=O)oc3c2C)OC1(C)C
-27%,CCCN1CC=C2C(C#N)=C(N)C(C#N)(C#N)C(c3cccc(OC)c3OC)C2C1 (stereo unspecified)
-8%,CCCCNc1ccc(C(F)(F)F)cc1S(=O)(=O)NCCc1ccc(F)cc1
11%,CC1CCN(C(=S)NC(=O)c2ccccc2Br)CC1
-7%,COc1ccccc1CNC(=O)COC(=O)CNS(=O)(=O)c1ccc(NC(C)=O)cc1
-12%,Cn1cc(S(=O)(=O)N2CCOCC2)cc1C(=O)O
9%,CC(=O)NC(C(=O)c1ccccc1)N1CCCCC1 (stereo unspecified)
27%,CN1CCN(S(=O)(=O)c2ccc(Br)c3ccccc23)CC1
-2%,CC1CC1C(=O)Nc1nc(-c2ccc(Cl)s2)cs1 (stereo unspecified)
-15%,COCCN(C(=O)c1ccc(C)o1)c1c(N)n(CC(C)C)c(=O)[nH]c1=O
-21%&4%,COc1ccc(N2CCN(C(=O)c3cn(C)c4ccc(S(=O)(=O)N5CCOCC5)cc4c3=O)CC2)cc1
5%,Cc1ccc(-n2nc(C)c3c(C)cc(=O)n(CC(=O)Nc4ccc(C(C)C)cc4)c32)cc1
15%,O=C(Nc1nnc(SCc2c(Cl)cccc2Cl)s1)c1cccc([N+](=O)[O-])c1
12%,Oc1ccccc1-c1nnc2n1CCCCC2
-10%,CS(=O)(=O)N(CCc1ccccc1)CC(=O)NCc1ccco1
-13%,Cc1cccc(C)c1NC(=O)NC1(C(=O)N2CCOCC2)CCCCC1
0%,CCn1c(C(=O)N2CCCC(C(=O)NCCc3ccc(C)cc3)C2)cc2sccc21 (stereo unspecified)
3%,O=c1c(CCc2ccccc2)nc2cnc(N3CCNCC3)nc2n1-c1ccccc1
u,COCCCN(C(=S)Nc1cc(Cl)cc(Cl)c1)C(C)c1ccncc1 (stereo unspecified)
8%,O=C(Nc1cc(-c2ccccc2)cs1)c1ccco1
-3%,COc1ccc(CCNC(=O)COc2cc(=O)n(C)c3ccccc23)cc1OC
10%,NS(=O)(=O)c1cc(C(=O)OCC(=O)c2ccccc2)c(Cl)cc1Cl
-4%,COC(=O)c1ccc(COc2ccccc2/C=C(\C#N)C(=O)NC(C)C)cc1
-19%,O=C(NC1=NCCS1)c1cccc(N2C(=O)c3ccccc3C2=O)c1
8%,COc1ccc(C(C)N2CC34C=CC(O3)C(C(=O)O)C4C2=O)cc1 (stereo unspecified)
-2%,COCC(=O)NC1CCN(S(=O)(=O)c2ccc(C(=O)O)cc2)CC1
-5%,Cc1cc(C)c(C#N)c(SCC(=O)Nc2ccc3c(c2)OCO3)n1
2%,Cc1ccccc1C(=O)NC1CCSC1=O (stereo unspecified)
-16%,CCc1ccccc1NC(=O)Cn1nnc(-c2cccs2)n1
-1%,CC(=O)Nc1ccc(NS(=O)(=O)c2ccccc2)c2ccccc12
9%,COc1cccc(N2CCN(CC(=O)Nc3ccc(-n4cnnn4)cc3)CC2)c1
102%[activator],CC1=C/C(=C(/c2cc(C)c(O)c(Br)c2)c2ccccc2S(=O)(=O)O)C=C(Br)C1=O
-28%,N#Cc1c(NC(NC(=O)c2ccco2)C(=O)c2ccccc2)sc2c1CCCC2 (stereo unspecified)
-8%,O=C(CCc1nc2ccccc2c(=O)[nH]1)OCC(=O)c1ccc(C2CCCCC2)cc1
-9%,CC(C)c1cccc(C(C)C)c1NC(=O)CCl
15%,C=CCn1c(SCC(=O)Nc2ccc(C)cc2C)nnc1-c1cccnc1

Going on with the list.
VDR inh,SMILES
-4%,COc1ccc(N2CCN(C(=O)CCNS(=O)(=O)c3ccc4c(c3)CCC(=O)N4)CC2)cc1
-12%,CCOC(=O)C1=C(C)n2c(s/c(=C3\C(=O)Nc4ccccc43)c2=O)=NC1c1ccc(OC)cc1 (stereo unspecified)
89µM*,Cn1nc(C(F)(F)F)c(/C=N/OC(=O)c2ccccc2)c1Sc1ccc(Cl)cc1
21%,O=C(NCC1CCCO1)c1ccc(NC(=O)C2CCCCC2C(=O)O)cc1 (stereo unspecified)
-12%,CC1CCN(CC(O)COC2CCC(C(C)(C)C)CC2)CC1 (stereo unspecified)
1%,Cc1ccc(S(=O)(=O)N(C)c2ccc(C(=O)N3CCc4ccccc4C3)cc2)cc1
-3%,CC1CCN(c2ccc3c(c2)S(=O)(=O)c2cccc(C(=O)NCc4cccc(F)c4)c2C3=O)CC1
-7%,CCN(CC)C(=O)Sc1cccc2cccnc12
8%,Cc1cc(=O)[nH]c2nnc(SCCC(C)C)n12
0%,C/C=C/c1ccc(OCCCCOc2ccccc2F)c(OC)c1
13%,FC(F)(F)c1cnc(Oc2ccccc2-c2nnc(-c3ccc(Cl)cc3)o2)c(Cl)c1
-3%,NC(N)=Nc1ccc(C=C2C=Cc3ccccc32)cc1
1%,CCn1c(SC(C)C(=O)Nc2ccc(N3CCOCC3)cc2)nnc1C1CC1 (stereo unspecified)
-14%,Cc1ccc(NC(=O)CSCC(=O)N(CCC(C)C)c2c(N)n(Cc3ccccc3)c(=O)[nH]c2=O)cc1
4%,COc1ccc(C(=O)CCc2nc3ccccc3s2)cc1
-8%,O=C(Cc1ccccc1)N/N=C/c1cccc([N+](=O)[O-])c1
-8%,COc1cc(CNC(C)(C)C)ccc1OCC(=O)NC(C)(C)C
40µM*,CN(C)c1ccc(C(=C2C=CC(=[N+](C)C)C=C2)c2ccc(N(C)C)cc2)cc1
11%,O=S(=O)(NC1CCCCC1)c1cccs1
5%,CC(C)Oc1ccccc1/C=N/Nc1ccccc1[N+](=O)[O-]
4%,CC(=O)c1cnc(SCCN2C(=O)c3ccccc3C2=O)nc1C
15%,O=C(CN1C(=O)c2cccnc2Oc2ccc(Cl)cc21)Nc1cccc(C(F)(F)F)c1
-3%,Cc1ccc(NC2=NC3(CCCC3)N=C(N)N2)c(C)c1
17%,Cc1ccc(NC(=O)C2CCN(S(=O)(=O)c3ccc4[nH]c(=O)ccc4c3)CC2)c(C)c1
-11%,O=C(CSc1nc(C2CC2)nc2ccccc12)N1c2ccccc2Sc2ccc(C(F)(F)F)cc21

Brought forward from above: two entries; new compounds follow.
VDR inh,SMILES
17%,Cc1ccc(NC(=O)C2CCN(S(=O)(=O)c3ccc4[nH]c(=O)ccc4c3)CC2)c(C)c1
-11%,O=C(CSc1nc(C2CC2)nc2ccccc12)N1c2ccccc2Sc2ccc(C(F)(F)F)cc21
12%,COc1cccc(/C=N/NC(=O)CSCC(=O)Nc2ccccc2)c1O
5%,COC(=O)CC1C(=O)NCCN1C(=S)Nc1cccc(C)c1 (stereo unspecified)
2%,CN1C(=O)CSC1=Nc1cccc(C(=O)O)c1
12%,Cc1ccc(N(C(=O)CNC(=O)c2ccco2)C(C(=O)NC2CCCCC2)c2cccnc2)cc1 (stereo unspecified)
-8%,N#CCCN1CCN(C(=S)c2ccc(-c3cc(Cl)ccc3Cl)o2)CC1
-7%,CC(Sc1nnc(-c2cccs2)n1C1CC1)C(=O)NCC1CCCO1 (stereo unspecified)
6%,CCCN(C(=O)c1c(C)oc2ncn(CC(C)C)c(=O)c12)c1ccccc1C
12%,O=S(=O)(c1cccs1)N1CCC2(CC1)OCCN2S(=O)(=O)c1ccccc1
12%,COc1cc2ccccc2cc1C(=O)Nc1ccc(Cc2ccncc2)cc1
-11%,Cc1ccc(O)c(NC(=S)NC(=O)c2ccccc2Cl)c1
-23%,Cc1cc(OC(=O)c2ccc(S(=O)(=O)N3CCOCC3)cc2)c([N+](=O)[O-])c(=O)[nH]1
-1%,COc1ccccc1OC(=O)c1cc(Cl)nc2ccccc12
-2%,CC[C@@H]1O[C@]2(C=C[C@@H]1C)C[C@H]1C[C@H](CC=C(C)[C@@H](O[C@@H]3C[C@H](OC)[C@H](O[C@@H]4C[C@H](OC)[C@H](O)[C@H](C)O4)[C@H](C)O3)[C@@H](C)C=CC=C3CO[C@@H]4[C@@H](O)C(C)=C[C@@H](C(=O)O1)[C@]34O)O2
2%,COc1ccc(-c2cc(C(F)(F)F)nc(N3CCCCC3)n2)cc1OC
9%,O=C(CSc1n[nH]c(-c2ccncc2)n1)NC1CCS(=O)(=O)C1 (stereo unspecified)
8%,CCOC(=O)CSc1nnc(-c2ccc(NS(=O)(=O)c3ccc(C)cc3)cc2)o1
-2%,COc1cccc(CN2CCN(S(=O)(=O)c3ccc(Br)cc3)CC2)c1
-12%,COc1ccc(/C=N/Nc2cc(C)nc(N)n2)cc1
9%,CCOC(=O)C1CCN(C(=O)COC(=O)/C=C/c2cccc(OC)c2OC)CC1
-19%,CSc1ncccc1C(=O)N(C)CC(=O)Nc1ccc(Cl)cc1
-3%,CCN(CC(=O)Nc1ccc(NC(C)=O)cc1)C(=O)CN1C(=O)NC2(CCCC2)C1=O
-6%,CCOc1ccccc1-c1nc(C(N)=O)c2c(n1)n(-c1ccc3c(c1)OCO3)c(=O)n2C
-21%,CC(OC(=O)c1cc2ccccc2cc1O)C(=O)Nc1ccc(S(N)(=O)=O)cc1 (stereo unspecified)
15%,CC1CN(C(=O)C2CCCCC2)C(C)CN1C(=O)C1CCCCC1 (stereo unspecified)
-2%,O=C(NCCc1ccco1)C(=O)NCC1CCCN1S(=O)(=O)c1ccccc1 (stereo unspecified)

Rewritten with each value named: four of the compounds above
smiles: CC(Sc1nnc(-c2cccs2)n1C1CC1)C(=O)NCC1CCCO1 (stereo unspecified)
  VDR inh: -7%

smiles: CCCN(C(=O)c1c(C)oc2ncn(CC(C)C)c(=O)c12)c1ccccc1C
  VDR inh: 6%

smiles: O=S(=O)(c1cccs1)N1CCC2(CC1)OCCN2S(=O)(=O)c1ccccc1
  VDR inh: 12%

smiles: COc1cc2ccccc2cc1C(=O)Nc1ccc(Cc2ccncc2)cc1
  VDR inh: 12%

The listing picks up with the two entries that preceded the break.
VDR inh,SMILES
15%,CC1CN(C(=O)C2CCCCC2)C(C)CN1C(=O)C1CCCCC1 (stereo unspecified)
-2%,O=C(NCCc1ccco1)C(=O)NCC1CCCN1S(=O)(=O)c1ccccc1 (stereo unspecified)
7%,CC(C)[C@H](NC(=O)N1CCn2c1nc1ccccc12)C(=O)NCc1ccco1
-4%,Cc1ccc(/C=C2\SC(=S)N(CCC(=O)Nc3ccc(O)cc3)C2=O)cc1
-19%,Cc1ccc(NC(=O)Cn2c(=O)n(-c3ccc(Cl)c(Cl)c3)c(=O)c3c(C)c(C)sc32)c(C)c1
2%,COc1ccc(N2C(=O)CSC2c2ccncc2)cc1 (stereo unspecified)
8%,COc1ccc(NC(=O)N2CCCC3(CCN(S(C)(=O)=O)CC3)C2)cc1
10%,Cc1ccc2occ(CC(=O)N(Cc3ccccc3Cl)C3CCS(=O)(=O)C3)c2c1 (stereo unspecified)
-9%,CC1(C)CC2CC(C)(CN2S(=O)(=O)c2ccc(C(=O)Nc3ccc(Cl)c(S(=O)(=O)N4CCOCC4)c3)cc2)C1 (stereo unspecified)
6%,COc1ccc(CCNC(=O)c2ccc3c(c2)SC2=NS(=O)(=O)CCN23)cc1
26%,CC(=O)Nc1ccc(NC(=O)C2CCCN(c3nnc(-n4cccc4)s3)C2)cc1 (stereo unspecified)
7%,Cc1nn(-c2ccccc2)c(C)c1C(=O)N1CCN(S(=O)(=O)c2ccccc2)CC1
-1%,CN(C(=O)c1ccc(NC(=O)Cc2ccc(NC(=O)C3CCN(C(=O)C4CCCCC4)CC3)cc2)cc1)C1CCCC1
-2%,OC(CN1CCC(Cc2ccccc2)CC1)C(F)(F)F (stereo unspecified)
13%,Cc1ccc(N2C(=O)C3C4C=CC(CC4)C3C2=O)cc1Cl (stereo unspecified)
1%,Cc1ccc(CNc2ccc(-c3nc(-c4ccncc4)no3)cc2[N+](=O)[O-])cc1
-21%,CC1(C)CC(NC(=O)Cc2ccccc2)CC(C)(C)N1
0%,CCCCCC(=O)N1CC2(C)CN(C(=O)CCCCC)CC(C)(C1)C2=O
-5%,CN(c1ccccc1)S(=O)(=O)c1ccc(NC(=O)c2ccccc2)cc1
-3%,COc1ccc(CCNC(=O)c2nc3ncccn3n2)cc1OC
-27%,S=C(NCCc1ccccc1)N1CCN(C(=S)NCCc2ccccc2)CC1

Shown as a hit in VDR inh, of those listed so far:
VDR inh,SMILES
89µM*,Cn1nc(C(F)(F)F)c(/C=N/OC(=O)c2ccccc2)c1Sc1ccc(Cl)cc1
40µM*,CN(C)c1ccc(C(=C2C=CC(=[N+](C)C)C=C2)c2ccc(N(C)C)cc2)cc1
